Six1-Eya2 inh = qHTS Assay for Inhibitors of the Six1/Eya2 Interaction; Homeobox protein SIX1 (Homo sapiens) + Protein phosphatase EYA2 (Homo sapiens), …; AlphaScreen GST-Six1/His-Eya2 binding, biochemical; hits give low values; control for the full effect not named in the record; activity change, % (no concentration beside the values); actives 0.56% (n = 360,000); in the data active = activity change below about -65%; inconclusive = about -30% to -65%; inactive = above about -30%; note: % is set by controls: 0 for no effect and ±100 for the full control effect; compound concentration not given in the record
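Compounds are tested against tagged Six1 and Eya2 proteins bridged by glutathione donor and nickel acceptor beads; after a one-hour incubation at 37 °C without light, AlphaScreen emission is recorded.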
D2 ag = Beta-Arrestin HTS for Positive Allosteric Modulators of the Human D2 Dopamine Receptor: Agonists; D(2) dopamine receptor (Homo sapiens), P14416; DiscoveRx PathHunter D2 beta-arrestin, luminescence, 90 min; 100% = 57 uM dopamine signal; activation, % (test concentration not listed); actives 0.084% (n = 360,000); AID 624465, 2012; in the data active = activation above about 40%; inconclusive = about 15% to 40%; inactive = below about 15%; note: compound concentration not given in the record; the text of the record calls up to 30% inactive
Target sequence (P14416 whole entry, looked up): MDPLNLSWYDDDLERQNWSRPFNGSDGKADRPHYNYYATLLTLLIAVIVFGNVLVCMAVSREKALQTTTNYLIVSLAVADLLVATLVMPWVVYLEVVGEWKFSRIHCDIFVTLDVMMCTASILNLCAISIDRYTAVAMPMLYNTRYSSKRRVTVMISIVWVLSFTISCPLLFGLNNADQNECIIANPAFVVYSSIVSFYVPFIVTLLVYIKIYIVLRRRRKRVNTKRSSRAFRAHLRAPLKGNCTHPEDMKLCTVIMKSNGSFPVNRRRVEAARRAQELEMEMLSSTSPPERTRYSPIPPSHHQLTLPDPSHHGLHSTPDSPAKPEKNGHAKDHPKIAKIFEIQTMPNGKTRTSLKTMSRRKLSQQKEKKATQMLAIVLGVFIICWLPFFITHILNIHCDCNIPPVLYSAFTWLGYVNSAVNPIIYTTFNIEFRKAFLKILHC
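DiscoveRx PathHunter D2 beta-arrestin cells (2,100/well) attached overnight, then compound-stimulated 90 min at 37 C in HBSS/10 mM HEPES/0.1% Tween-20 buffer; beta-galactosidase complementation read by luminescence after 1 h at ambient temperature. Dopamine 57 uM final (EC100) as control.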
TRPML1 agonist = qHTS for Agonists of the Human Mucolipin Transient Receptor Potential 1 (TRPML1); activation, % (test concentration not listed); actives 0.12% (n = 410,000); Mucolipin-1 (Homo sapiens), Q9GZU1; TRPML1-expressing cells, Ca2+ dye fluorescence, FDSS; host cell line not named in the record; reference of the full effect not given here; in the data active = activation above about 50%; inconclusive = about 30% to 50%; inactive = below about 30%; note: 0% is about no effect; the text of the record puts the active cut at 80%
Target sequence (Q9GZU1 whole entry, looked up): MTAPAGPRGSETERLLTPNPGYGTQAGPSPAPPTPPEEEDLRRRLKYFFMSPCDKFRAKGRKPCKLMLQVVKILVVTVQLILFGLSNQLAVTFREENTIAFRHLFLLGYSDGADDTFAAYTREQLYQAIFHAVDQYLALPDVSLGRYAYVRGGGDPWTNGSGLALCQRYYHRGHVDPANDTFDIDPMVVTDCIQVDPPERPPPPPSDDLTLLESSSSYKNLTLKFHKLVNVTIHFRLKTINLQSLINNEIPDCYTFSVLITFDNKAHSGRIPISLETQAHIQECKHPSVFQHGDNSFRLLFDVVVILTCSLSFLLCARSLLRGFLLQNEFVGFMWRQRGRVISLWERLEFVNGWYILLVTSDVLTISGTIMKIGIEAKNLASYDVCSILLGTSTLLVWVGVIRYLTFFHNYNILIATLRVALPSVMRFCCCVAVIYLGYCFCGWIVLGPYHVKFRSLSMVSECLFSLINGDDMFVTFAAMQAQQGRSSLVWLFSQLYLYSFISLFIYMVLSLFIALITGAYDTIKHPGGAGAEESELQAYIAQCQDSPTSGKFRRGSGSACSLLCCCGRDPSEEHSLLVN
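In this qHTS format, compounds were pin-transferred onto Ca8-dye-loaded TRPML1-DL cells induced with Tet overnight, and intracellular Ca2+ fluorescence was recorded kinetically for 110 s after a 10 s baseline. A subsequent 4uM final 54-4 (EC80) addition followed by a second 110 s read served as the antagonist phase.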
CtBP-E1A blk = qHTS Assay for Inhibitors of the CtBP/E1A Interaction; activity change, % (concentration not given with the values); CtBP / adenovirus E1A interaction (AlphaScreen); actives 0.49% (n = 340,000); AlphaScreen GST-E1A/His-CtBP binding, 1536-well; hits give low values; control for the full effect not named in the record; in the data active means activity change below about -65%; inconclusive means about -30% to -65%; inactive means above about -30%; note: % is set by controls: 0 for no effect and ±100 for the full control effect
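GST-E1A and His-tagged CtBP (125 nM each as 5X stock) were preincubated with pin-transferred compound for 2 h at 37 °C in the dark, then glutathione donor and nickel acceptor beads were added for 1 h before AlphaScreen reading.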
PINK1 modulator = A Quantitative High throughput Screen to Identify Chemical Modulators of PINK1 Expression | PINK1 immunofluorescence, high-content cytometry, 24 h | Potency, µM (series often up to 76.6 µM), for inactives: top-dose activation (PINK1 increase), usual class: activators | actives 0.2% (n = 410,000); active = well fitted activation curve with a large enough effect; inconclusive = small, poorly fitted or top-dose-only effect; inactive = flat fitted curve, though single readings scatter; cell line not stated here;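 note: potency is the fitted concentration of half-maximal effect; % of control where 0% means no effect; nearly all actives have a fitted effect of over 65% in size; a mitochondrial uncoupler was the plate control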
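Readout is PINK1 immunofluorescence, quantified alongside mitochondrial, cell and nuclear markers by laser-scanning microplate cytometry. Cells from a stable line were exposed to compound titrations (5 concentrations) for 24 hours, with CCCP controls.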
D2 PAM = Beta-Arrestin HTS for Positive Allosteric Modulators of the Human D2 Dopamine Receptor: Potentiators; DiscoveRx D2 beta-arrestin cells, luminescence, 90 min; 100% = 57 uM dopamine signal; potentiation, % (no concentration beside the values); actives 0.23% (n = 360,000); AID 624464, 2012; D(2) dopamine receptor (Homo sapiens), P14416; active = potentiation of 50% or more; inconclusive = 30% to 50%; inactive = 30% or less;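 note: compound concentration not given in the record; tested on top of an EC20 dose of dopamine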
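PathHunter beta-arrestin assay in DiscoveRx D2 cells. Compounds were added with an EC20 of dopamine (50 nM final) for 90 min at 37 deg C. Luminescence was read 1 h after detection reagent, with 57 uM dopamine as the EC100 control.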
An asterisk follows results filed as active; & = joins results of further samples; [ ] = dose if it differs, or a comment.

CCCS(=O)(=O)NC(=O)C1(C)CCCN(C(=O)c2cc(-c3cccs3)oc2C)C1 (stereo not given) was read as Six1-Eya2 inh 10, D2 ag -3.0, TRPML1 agonist 1.0, CtBP-E1A blk -15, PINK1 modulator -0.3% and D2 PAM -7.
For COc1ccc(N=C2S/C(=C\c3cc(C)n(C)c3C)C(=O)N2CC(C)C)cc1 the results were Six1-Eya2 inh inconclusive, D2 ag -8.1, TRPML1 agonist -1.6, CtBP-E1A blk -24, PINK1 modulator 20% and D2 PAM -8.
Screening COc1ccc(CNC(=O)C2CCC(CNc3c(N4CCCCC4)c(=O)c3=O)CC2)cc1 (stereo not given) returned Six1-Eya2 inh -9, D2 ag -2.2, TRPML1 agonist 0.0, CtBP-E1A blk -12, PINK1 modulator 1.7% and D2 PAM -8.
`O=C(NCCN1CCOCC1)c1nn2c(c1Cl)NC(c1ccccc1)CC2C(F)(F)F` (stereo not given) gave Six1-Eya2 inh -2, D2 ag -0.2, TRPML1 agonist 0.8, CtBP-E1A blk -1, PINK1 modulator 5.7%[38.3 µM] and D2 PAM -3.
Screening COc1cc(CC(=O)Nc2ccccc2N2CCOCC2)cc(OC)c1OC returned Six1-Eya2 inh 2, D2 ag 8.1, TRPML1 agonist -0.3, PINK1 modulator 4.4% and D2 PAM -4.
Screening Cc1ccc(C)c(N(CC(=O)N2CCCCCC2)S(C)(=O)=O)c1 returned Six1-Eya2 inh 2, D2 ag 4.0, TRPML1 agonist -0.1, CtBP-E1A blk -2, PINK1 modulator 0.9% and D2 PAM -4.
Screening O=C1Nc2ccccc2C1C(C[N+](=O)[O-])c1ccccn1 (stereo not given) returned Six1-Eya2 inh -10, D2 ag -10, TRPML1 agonist 3.8, PINK1 modulator 4.8% and D2 PAM -4.
Screening CCC(=O)Nc1ccc(-c2cc(-c3ccccc3)nc(-c3ccc(NC(=O)CC)cc3)n2)cc1 returned Six1-Eya2 inh -1, D2 ag -1.6, TRPML1 agonist 0.3, CtBP-E1A blk 5, PINK1 modulator 7.7% and D2 PAM -14.
For O=C(CN1CCOCC1)Nc1ccc2c(c1)OCO2 the results were Six1-Eya2 inh 7, D2 ag -5.9, TRPML1 agonist 4.1, CtBP-E1A blk 14, PINK1 modulator -0.6% and D2 PAM -3.
Screening COc1cc2cc(CN(CCN3CCCC3)C(=O)Nc3ccc(F)cc3)c(=O)[nH]c2cc1OC returned Six1-Eya2 inh -11, D2 ag -1.0, TRPML1 agonist -1.2, CtBP-E1A blk -2, PINK1 modulator 1.9% and D2 PAM -14.
Screening Cc1cccc(CCNC(=O)CCS(=O)(=O)c2cc3c(cc2C)NC(=O)CO3)c1 returned Six1-Eya2 inh -3, D2 ag -2.4, TRPML1 agonist -0.4&1.5, CtBP-E1A blk -9, PINK1 modulator 4.8%&4.5% and D2 PAM -4.
`COc1ccc(CCN2C(=O)c3ccccc3C2c2nnnn2Cc2ccccc2)cc1OC` (stereo not given) gave Six1-Eya2 inh 18, TRPML1 agonist -0.5, CtBP-E1A blk 0 and PINK1 modulator 2.3%.

4 consecutive records from above, quoted:
For O=C(CN1CCOCC1)Nc1ccc2c(c1)OCO2 the results were Six1-Eya2 inh 7, D2 ag -5.9, TRPML1 agonist 4.1, CtBP-E1A blk 14, PINK1 modulator -0.6% and D2 PAM -3.
Screening COc1cc2cc(CN(CCN3CCCC3)C(=O)Nc3ccc(F)cc3)c(=O)[nH]c2cc1OC returned Six1-Eya2 inh -11, D2 ag -1.0, TRPML1 agonist -1.2, CtBP-E1A blk -2, PINK1 modulator 1.9% and D2 PAM -14.
Screening Cc1cccc(CCNC(=O)CCS(=O)(=O)c2cc3c(cc2C)NC(=O)CO3)c1 returned Six1-Eya2 inh -3, D2 ag -2.4, TRPML1 agonist -0.4&1.5, CtBP-E1A blk -9, PINK1 modulator 4.8%&4.5% and D2 PAM -4.
`COc1ccc(CCN2C(=O)c3ccccc3C2c2nnnn2Cc2ccccc2)cc1OC` (stereo not given) gave Six1-Eya2 inh 18, TRPML1 agonist -0.5, CtBP-E1A blk 0 and PINK1 modulator 2.3%.

(next part)
Screening O=C(N/C(=C/c1cccc(Br)c1)c1nc(=S)[nH][nH]1)c1ccccc1 returned Six1-Eya2 inh 1, D2 ag -7.1, TRPML1 agonist 0.3, CtBP-E1A blk -9, PINK1 modulator -4.0% and D2 PAM -13.
For CSc1nnc(COc2ccc(C)cc2)n1N the results were Six1-Eya2 inh 3, D2 ag -3.6, TRPML1 agonist -0.9, CtBP-E1A blk 2, PINK1 modulator inconclusive and D2 PAM -15.
`CCN(CC)CCCNC(=O)C1c2cc(OC)c(OC)cc2C(=O)N(C)C1c1cccs1` (stereo not given) gave Six1-Eya2 inh -5, D2 ag -3.5, TRPML1 agonist 0.6, CtBP-E1A blk -8, PINK1 modulator -0.1% and D2 PAM -6.
CNc1cc(-c2ccc(OC)c(OC)c2)ncn1 was read as Six1-Eya2 inh -7, D2 ag -3.2, TRPML1 agonist -0.7, CtBP-E1A blk -6, PINK1 modulator 1.8% and D2 PAM 1.
`CCOC(=O)c1sc(NC(=O)CSc2nccc(C)n2)c(C#N)c1C` gave Six1-Eya2 inh 6, D2 ag -2.9, TRPML1 agonist -0.4, CtBP-E1A blk -3, PINK1 modulator 7.1% and D2 PAM 8.
Screening CC(Cc1cccs1)NC(=O)c1cccc(Cl)c1 (stereo not given) returned Six1-Eya2 inh 2, D2 ag -0.8, TRPML1 agonist -0.2, CtBP-E1A blk 6, PINK1 modulator -0.4% and D2 PAM -6.
Screening CCn1c(SCC(=O)Nc2ncc(C(F)(F)F)cc2Cl)nnc1-c1cccc(C)c1 returned Six1-Eya2 inh -4, D2 ag -0.5, TRPML1 agonist 3.0, CtBP-E1A blk -6, PINK1 modulator 0.4% and D2 PAM -20.
For CCOc1ccc(NC(=O)COC(=O)c2c[nH]c3ccccc23)cc1 the results were Six1-Eya2 inh 12, D2 ag -2.8, TRPML1 agonist 0.2, CtBP-E1A blk -11, PINK1 modulator 2.7% and D2 PAM -13.
COc1ccc([C@@H]2CC=C(C(=O)O)[C@H](c3ccccc3F)N2S(=O)(=O)c2ccc(C)cc2)cc1OC was read as Six1-Eya2 inh 5, D2 ag -2.8, TRPML1 agonist -0.3, CtBP-E1A blk 4, PINK1 modulator 0.7% and D2 PAM -3.
For COc1ccc(C(=O)OCC(=O)Nc2cccc(S(=O)(=O)N3CCCCCC3)c2)cc1[N+](=O)[O-] the results were Six1-Eya2 inh -13, D2 ag -3.8, TRPML1 agonist 1.6, CtBP-E1A blk 7, PINK1 modulator 3.7% and D2 PAM -8.
`O=C(O)C1Sc2[nH]c(=O)sc2C2c3cc(Cl)ccc3OC(=O)C12` (stereo not given) gave Six1-Eya2 inh -6, D2 ag -1.8, TRPML1 agonist 1.8, CtBP-E1A blk -11, PINK1 modulator -2.1% and D2 PAM -7.
Screening Cc1cc2ccccn2c1C(=O)Nc1ccc(Cl)cc1 returned Six1-Eya2 inh 5, D2 ag 1.0, TRPML1 agonist 0.6, CtBP-E1A blk 16, PINK1 modulator 6.8% and D2 PAM -5.
Screening OCC[C@H]1C[C@H](O)[C@@H](O)[C@@]2(Cc3ccccc3O2)O1 returned Six1-Eya2 inh 2, D2 ag -3.4, TRPML1 agonist -0.6, CtBP-E1A blk 5, PINK1 modulator 0.5% and D2 PAM -4.
Screening O=S(=O)(Nc1ncn[nH]1)c1ccc2ccccc2c1 returned Six1-Eya2 inh -1, D2 ag -1.9, TRPML1 agonist -0.5, CtBP-E1A blk 4, PINK1 modulator -0.6% and D2 PAM 18.
COc1ccc(NC(=O)N2CCCC(c3nc(-c4ccc(F)cc4)no3)C2)cc1 (stereo not given) was read as Six1-Eya2 inh 19, D2 ag -0.3, TRPML1 agonist 0.6, PINK1 modulator -1.3% and D2 PAM -2.
For O=C1c2cc(F)ccc2OC2(CCNCC2)C12CC(c1ccccc1)=NO2 (stereo not given) the results were Six1-Eya2 inh 7, D2 ag -2.2, TRPML1 agonist 1.6, CtBP-E1A blk -26, PINK1 modulator 1.6% and D2 PAM -5.
O=C(CN1CCN(S(=O)(=O)c2ccc(Br)s2)CC1)NC1CCCCC1 was read as Six1-Eya2 inh -2, D2 ag -1.3, TRPML1 agonist 1.1, CtBP-E1A blk 1, PINK1 modulator -0.4% and D2 PAM -18.
`CCCCc1nnc(NC(=O)c2cccc(S(=O)(=O)N3CCN(C)CC3)c2)s1` gave Six1-Eya2 inh 0, D2 ag 4.7, TRPML1 agonist 0.2, CtBP-E1A blk 2, PINK1 modulator 0.7% and D2 PAM -7.
`Cc1[nH][nH]c(=O)c1C=Nc1ccc(C(F)(F)F)cc1` gave Six1-Eya2 inh 6, D2 ag -2.0, TRPML1 agonist -0.1, CtBP-E1A blk 5, PINK1 modulator 2.9% and D2 PAM -1.
`Cn1c(CCNC(=O)OC(C)(C)C)n[nH]c1=S` gave Six1-Eya2 inh 7, D2 ag 2.2, TRPML1 agonist -0.4, CtBP-E1A blk -9, PINK1 modulator -1.1% and D2 PAM 22.
For Cn1c(=O)c(=O)n(C)c2cc(S(=O)(=O)N3CCCC3C(=O)Nc3ccc(F)cc3)ccc21 (stereo not given) the results were Six1-Eya2 inh 0, D2 ag 1.3, TRPML1 agonist 0.0&-0.8, CtBP-E1A blk 4, PINK1 modulator -0.2%&0.9% and D2 PAM 1.
For Cn1c(=O)c2c(nc(N3CCN(Cc4ccccc4)CC3)n2CC(=O)c2ccccc2)n(C)c1=O the results were Six1-Eya2 inh 7, D2 ag 0.6, TRPML1 agonist -0.3, CtBP-E1A blk 11, PINK1 modulator 6.0%[38.3 µM] and D2 PAM -8.
COc1cccc2sc(N(CCN(C)C)C(=O)c3ccc(S(=O)(=O)N4CCCC4)cc3)nc12 was read as Six1-Eya2 inh -12, D2 ag -5.7, TRPML1 agonist -0.1, CtBP-E1A blk -2, PINK1 modulator 0.4% and D2 PAM -33.
Screening Cc1nonc1NC(=O)N1CCCC1 returned Six1-Eya2 inh 6, D2 ag 0.5, TRPML1 agonist 0.0, CtBP-E1A blk 12, PINK1 modulator -2.0% and D2 PAM -3.
CC1Nc2ccccc2C(=O)N1NS(=O)(=O)c1ccccc1 (stereo not given) was read as Six1-Eya2 inh 2, D2 ag -3.1, TRPML1 agonist -0.9, CtBP-E1A blk -16, PINK1 modulator -1.0% and D2 PAM -8.
C[C@H]1CN([C@@H](C)CO)S(=O)(=O)c2ccc(Br)cc2O[C@@H]1CN(C)S(=O)(=O)c1ccccc1 was read as Six1-Eya2 inh -4, D2 ag 3.4, CtBP-E1A blk 2 and PINK1 modulator 0.7%.
`CCCC/C(C)=N/NC(=O)NC1CCCCC1` gave Six1-Eya2 inh 8, D2 ag -0.8, TRPML1 agonist 1.2, CtBP-E1A blk 6, PINK1 modulator 5.5% and D2 PAM -6.
